# UUG fidelity = modulators of start codon recognition fidelity in yeast; S. cerevisiae UUG-firefly luciferase reporter, luminescence/redox ratio; activity score, % at 18.7 µM; actives 0.13% (n = 350,000);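 active means replicate mean at a twofold rise or more, about +100% in these data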;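 further: firefly luciferase made from a UUG start codon reports start codon fidelity; reporter light over untreated wells divided by growth signal over untreated wells; some hits fall short of that in this replicate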
# HIV Env fusion = blocks HIV Env-driven cell-cell fusion. HeLa-JRFL Env/CEM21 cell fusion, luciferase. inhibition, % at 12.3 µM. actives 1.1% (n = 360,000). AID 651610;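 active means mean replicate inhibition score of at least 50 and every replicate individually at or above 50; inconclusive means only one of the two criteria met; inactive means mean below 50 and not all replicates reaching 50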;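 further: 0% = plate neutral controls and 100% = maraviroc near 300 nM; one replicate is shown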
# Rce1 inhib = inhibitors of yeast Ras-converting enzyme | Q03530 | yeast membranes, quenched prenylated peptide cleavage fluorescence | calls only | actives 0.27% (n = 290,000);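 active means fall in fluorescence gain of 50% or more versus controls, with final raw signal at or below 3038400; inconclusive means same 50% fall but final raw signal above 3038400; inactive means fall in fluorescence gain under 50%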;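 further: plate controls were neutral control wells for no effect and wells lacking membranes for full effect; tested at 10 µM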
# eIF4H inh = inhibitors of RNA binding by human eIF4H | AID 2012 | Q15056 | actives 0.94% (n = 290,000) | inhibition, % at 35 µM | eIF4H fluorescence polarization binding assay;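 active means 50% or more with normal probe brightness, or confirmed in later tests; inconclusive means above 50% with abnormal brightness, or retests that disagree; inactive means below 50% or failed in later tests; about a fifth of its hits are not listed in these tables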;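 further: calls also rest on retests at 20 µM and on dose response follow-up; 0% = protein and probe with vehicle and 100% = probe without protein; strong numbers were not always called active; many hits fall short of the cut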
# MT1-MMP act inh = MT1-MMP (human) activation inhibition. P50281. HT1080 RFP-PRO-GFP cells, GFP/RFP ratio fluorescence, overnight; percent of plate control window, DMSO zero. GFP/RFP ratio change, % at 20 µM. actives 0.061% (n = 360,000);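 active means GFP/RFP ratio change of at least 30% with cell ATP level not reduced by more than half and red fluorescence within 50% of control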; further: strong numbers were not always called active
#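 Test system: HT1080 RFP-PRO-GFP cells; Benchmarks: DMSO and RFP-L50D-GFP cell wells; Timing: cells overnight before dosing, compound overnight, 37 °C, 5% CO2; Compound: one 20 µM compound dose with 1% DMSO; Read-out: GFP/RFP fluorescence ratio.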
# CSC inhib = blocks cancer stem cells. cancer stem cell-like cells viability, luminescence. inhibition, % at 7.5 µM. actives 1.1% (n = 300,000);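 active means mean at 75% or more and at least half the replicates too; inconclusive means mean and replicates disagree; tested in HMLE shEcad cells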;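 further: 0% = median of negative and 100% = median of positive control wells; the first replicate is given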
# PABP polyA inh = PABP-poly(A) binding inhibition. P11940. PABP-poly(A) RNA binding, fluorescence polarization. inhibition, % at 35 µM. actives 1% (n = 290,000). AID 2014;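 active means 50% or more with normal probe brightness, or confirmed in later tests; inconclusive means above 50% with abnormal brightness, or retests that disagree; inactive means below 50% or failed in later tests; about a fifth of its hits are not listed in these tables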;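 further: calls also rest on retests at 20 µM and on dose response follow-up; controls were probe without protein and protein plus probe with vehicle; some compounds called inactive have numbers as strong as hits; many hits fall short of the cut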
# Target sequence (P11940 whole entry, looked up): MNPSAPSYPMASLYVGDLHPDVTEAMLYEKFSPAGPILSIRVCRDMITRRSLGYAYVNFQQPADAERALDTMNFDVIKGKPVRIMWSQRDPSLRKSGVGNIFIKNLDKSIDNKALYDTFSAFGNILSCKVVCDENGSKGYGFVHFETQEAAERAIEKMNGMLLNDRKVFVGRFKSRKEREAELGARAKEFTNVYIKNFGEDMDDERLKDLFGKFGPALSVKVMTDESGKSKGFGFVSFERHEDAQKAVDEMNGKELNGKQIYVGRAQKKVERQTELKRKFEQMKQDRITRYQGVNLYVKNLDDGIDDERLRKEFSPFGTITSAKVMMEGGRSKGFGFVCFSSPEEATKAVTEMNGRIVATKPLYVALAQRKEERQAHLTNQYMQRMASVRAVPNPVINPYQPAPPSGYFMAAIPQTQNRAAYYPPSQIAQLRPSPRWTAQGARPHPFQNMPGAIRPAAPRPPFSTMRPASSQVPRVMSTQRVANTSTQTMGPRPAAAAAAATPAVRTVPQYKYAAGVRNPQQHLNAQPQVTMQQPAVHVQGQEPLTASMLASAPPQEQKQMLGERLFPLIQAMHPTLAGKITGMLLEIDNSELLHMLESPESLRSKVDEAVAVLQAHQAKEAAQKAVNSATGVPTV
# MT1-MMP act inh RFP = recorded beside MT1-MMP act inh, whose call it bears; RFP signal change, %; measured here: RFP expression control read;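 0 = vehicle wells; hits needed this value within 50% of zero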
# * = called active by the depositor; i = inactive; ? = inconclusive; / = no result given; & = joins results of further samples. Compounds as they come; 2.9% or so of the library scored in one or more.
SMILES,UUG fidelity,HIV Env fusion,Rce1 inhib,eIF4H inh,MT1-MMP act inh,MT1-MMP act inh RFP,CSC inhib,PABP polyA inh
Cc1ccc(S(=O)(=O)N2CCCCC2C(=O)N2CCN(C)CC2)cc1 (stereo unspecified),-12,/,i,6,-2,1,8,5
CCN(CC)S(=O)(=O)c1ccc2c(c1)c(=O)c(C(=O)N1CCN(c3ccccn3)CC1)cn2C,-8,7,i,0,0,0,-5,-4
CC(Sc1cccc2cccc(C(=O)O)c12)C(=O)O (stereo unspecified),-11,/,i,0,-4,5,-4,11
CC(C)(O)c1[nH]c2cc(C(F)(F)F)ccc2c1C(C)(C)O,-22,13,i,-5,9,-5,44,-2
COc1ccccc1CNC(=O)COC(=O)c1cccc(-n2cnnn2)c1,-11,-7,/,/,9,2,-8,/
Cc1cc(C(=O)CCC(=O)N2CCN(c3ccccc3)CC2)c(C)s1,-15,/,i,/,-1,4,-11,/
CC(C)c1nc(NCCN2CCOCC2)c(C#N)c2c1COC(C)(C)C2,-9,/,i,-6,-2,-4,-8,-4
Cc1cccnc1NC(=S)NC(=O)/C=C/c1ccco1,-35,/,i,16,-1,4,-7,10
CC(=O)N1CCN(c2ccccc2NC(=O)c2cccs2)CC1,-16,-15,i,10,-3,-2,-5,-2
C[C@H]1CN([C@@H](C)CO)C(=O)CCCn2nncc2CO[C@@H]1CN(C)Cc1cccc(C(=O)O)c1,5&-9,3,/,/,3,4,/,/
CN(C(=O)c1cccs1)c1ccc(OCC(=O)Nc2ccc(C(=O)O)cc2)cc1,-2,-32,i,18,6,6,-23,-10
CCC(C)(C)n1nnnc1CN1CCN(c2ccc(OC)cc2)CC1,/,-5,i,5,0,-2,-13,-12

# The final 4 records of the section before are carried over, then new ones follow:
SMILES,UUG fidelity,HIV Env fusion,Rce1 inhib,eIF4H inh,MT1-MMP act inh,MT1-MMP act inh RFP,CSC inhib,PABP polyA inh
CC(=O)N1CCN(c2ccccc2NC(=O)c2cccs2)CC1,-16,-15,i,10,-3,-2,-5,-2
C[C@H]1CN([C@@H](C)CO)C(=O)CCCn2nncc2CO[C@@H]1CN(C)Cc1cccc(C(=O)O)c1,5&-9,3,/,/,3,4,/,/
CN(C(=O)c1cccs1)c1ccc(OCC(=O)Nc2ccc(C(=O)O)cc2)cc1,-2,-32,i,18,6,6,-23,-10
CCC(C)(C)n1nnnc1CN1CCN(c2ccc(OC)cc2)CC1,/,-5,i,5,0,-2,-13,-12
O=C(N/N=C/c1cc(Cl)cc([N+](=O)[O-])c1O)c1ccc2c(c1)OCO2,1,24,/,22,/,/,31,-4
COc1ccc(OCCC(=O)OCC(=O)NC2CCCCCCC2)cc1,/,-19,i,2,-4,2,-4,-6
Cc1c(C)c2ccc(OCC(=O)NCCCn3ccnc3)cc2oc1=O,4,-7,i,-19,1,2,-3,-6
Cc1c(Cl)cccc1NC(=O)CSc1nncn1-c1cccnc1,-15,12,i,-1,1,3,-4,-12
CCC(C)C(=O)C(=O)N1CCC(n2nccc2NC(=O)CCOc2ccccc2)CC1 (stereo unspecified),-6,16,/,/,0,1,/,/
CCCCNC(=O)CNC(=S)N(Cc1ccccc1)Cc1cccs1,/,4,i,-8,-7,-6,46,-2
N#Cc1c2n(c(=S)n(-c3ccc(F)cc3)c1=O)CCCCC2,/,20,i,5,0,-1,32,-22
CCCCCCCCc1nnc(N)s1,-14,23,i,0,-5,-8,-4,2
COc1ccc(OC)c(C2c3[nH]c4ccccc4c3C[C@H]3C(=O)N(C4CC4)CC(=O)N23)c1 (stereo partly specified),2,-11,i,-12,0,1,-14,-10
OC1Cc2ccccc2C1Nc1cccc(C(F)(F)F)c1 (stereo unspecified),-2,22,/,/,-2,-6,/,/
CC1(Cc2ccccc2Cl)C(=O)Nc2c(Cl)ccc(Cl)c21 (stereo unspecified),1,-34,/,/,-7,-7,/,/
CSCCC(NS(=O)(=O)c1ccc2c(c1)oc(=O)n2C)C(=O)NC1CCCCC1 (stereo unspecified),-5,-8,i,-6,1,4,3,-19
CCc1ccc(OCCNC(=O)OCc2ccccc2)cc1,/,-16,i,-5,-5,0,6,4
Cn1c(=O)cc(OCCCC(=O)Nc2ccccn2)c2ccccc21,-6,1,i,-9,9,5,-1,0
Nc1ccccc1Oc1c(F)c(F)c(Oc2ccccc2N)c(F)c1F,/,-10,i,0,4,-3,4,7
CCC(=O)N(Cc1ccco1)c1nc(-c2ccccc2)cs1,-11,-53,i,-10,2,-1,5,-2
OCCC1CN(Cc2cccs2)CCN1Cc1ccccc1 (stereo unspecified),/,-10,i,0,-2,3,-5,-15
O=C(O)COc1ccccc1/C=C1\SC(=S)N(c2cccnc2)C1=O,/,15,i,-3,/,/,11,5
COc1ccc(NC(=O)CN2C(=O)C(=O)N(C3CCCC3)C2=O)c(OC)c1,-6,/,/,/,0,7,-11,/
COc1ccccc1OCC(=O)OCC(=O)NCCN1C(=O)CSC1=O,-1,-103,i,-3,0,5,-10,-4
COc1ccc(C(=O)CSc2nnc(CNc3ccc(F)cc3)o2)cc1,/,11,i,13,-2,-3,-9,10
COCCn1c(SCC(=O)Nc2cccc(C)c2)nnc1C(C)C,9,-102,i,-7,3,1,-3,13
O=C(Nc1ccc(S(=O)(=O)Nc2ccc(Cl)cc2)cc1)C1CCCO1 (stereo unspecified),-1,?,i,-5,2,-13,-3,-8
Cc1ccc(N=c2oc3cc(O)ccc3cc2C(N)=O)cc1,-27,50,i,-11,-37,-16,34,6
Cc1ccccc1-c1cnc(C(O)c2cccc(C)c2C)[nH]1 (stereo unspecified),-10,-12,/,/,-3,0,/,/
CCOC(=O)c1ccccc1NC(=O)CSc1nnc(C)c(=O)[nH]1,-16,-13,i,-10,2,4,8,2
COc1ccc(CCNC(=O)CN(c2cc(C)cc(C)c2)S(=O)(=O)c2c(C)noc2C)cc1OC,-12,10,i,-8,-2,4,-10,-2
Cc1ccc(N2CC(C(=O)Oc3cccc(N4C(=O)CCC4=O)c3)CC2=O)cc1 (stereo unspecified),-6,10,i,-6,-3,0,1,-5
COc1ccc(-c2nc(S(=O)(=O)c3ccc(C)cc3)c(N3CCCC3)o2)cc1,-9,/,i,-3,2,1,2,18
OC(CN1CCCCC1)c1ccc(Br)cc1 (stereo unspecified),-8,14,/,/,0,4,/,/
COc1cc(C2NC(=S)NC(C)=C2C(=O)Nc2cc(C)cc(C)c2)ccc1O (stereo unspecified),/,0,i,5,8,1,18,-9
Cn1c(SCc2ccccc2)nnc1-c1ccncc1,-17,/,i,3,4,2,11,-4
CCn1c(SCC(=O)c2ccccc2)nnc1-c1cccs1,-17,-67,i,-1,7,0,-5,-10
CCOc1ncccc1C(=O)Nc1nc(SC)ns1,-3,-29,i,-10,5,-4,-5,-7
CCOc1ccccc1NC(=O)Cc1coc2cc(C)ccc12,-10,/,i,4,-4,-7,-4,1
CCc1nc(N)c(C#N)c(-c2ccccc2OC)c1C,-20,/,i,3,6,5,-15,3
CN(CC(=O)Nc1ccccc1Br)CC(=O)Nc1ccccc1C(F)(F)F,-15,-5,i,-9,3,2,-3,-6
CCC(=O)N1N=C(c2ccc(NS(=O)(=O)c3ccccc3)cc2)CC1c1ccco1 (stereo unspecified),-8,0,/,/,3,-8,-12,/
COc1ccc(CNC(=O)CN2CCC(n3nnc4cc(F)ccc43)CC2)cc1,/,14,i,1,-1,-7,-2,-4
Cc1ccc(S(=O)(=O)NCC(C)NS(=O)(=O)c2ccccc2[N+](=O)[O-])cc1 (stereo unspecified),-6,20,i,-6,1,2,-9,9
CCc1ccc(OCC(=O)N/N=C(\C)c2ccc3c(c2)OCCO3)cc1,/,/,i,-3,6,6,13,3
COc1ccc(C2NC(=O)CS2)cc1OC (stereo unspecified),-9,/,i,-3,17,6,7,4
CC(=O)N(C(C)=O)N1C(=O)/C(=C/c2ccc(Cl)cc2)SC1=S,/,/,i,-7,5,9,29,-2
COc1ccccc1CCC(=O)N1CCC(n2nccc2NC(=O)C2CCOC2)CC1 (stereo unspecified),-10,-15,i,1,1,5,-10,5
CC1(NC(=O)NCCCCCCNC(=O)NC2(C)CCS(=O)(=O)C2)CCS(=O)(=O)C1 (stereo unspecified),-15,-2,i,-4,-2,-2,/,1
O=C(CCSCc1cccc(Cl)c1)NCCc1ccc(Cl)cc1,/,-15,i,0,-1,7,4,-10
Cc1cccc(-c2n[nH]c([N+](=O)[O-])n2)c1,-2,-163,i,0,-4,-4,15,11
CC(C)C[C@H](CO)Nc1nc(N(C)c2cccc(Cl)c2)c2ncn(C(C)C)c2n1,2,9,i,16,-4,-7,14,2
Cc1ccc(Cl)cc1N1CCN(S(=O)(=O)c2ccc3[nH]c(=O)c(=O)[nH]c3c2)CC1,-3,3,i,-1,0,-5,1,-12
Cc1cc(C(=O)CN2C(=O)NC(CCS(C)(=O)=O)C2=O)c(C)n1C1CC1 (stereo unspecified),-12,7,/,/,-5,-4,-10,/
COc1ccc(C(=O)C2CCN(CC(=O)Nc3ccc(C)cc3)CC2)cc1,-11,2,i,1,4,-1,9,2
O=C(c1ccccc1NS(=O)(=O)c1ccc(F)cc1)N1CCc2ccccc21,-7,7,i,0,-1,0,-5,-2
O=C(Nc1ccc(OC(F)F)cc1)c1ccccn1,/,-6,i,7,0,-1,/,7
COc1cccc(C2CC(c3cccs3)=NN2C(=O)CSC2=NCCS2)c1OC (stereo unspecified),-12,2,i,0,-3,-3,7,14
COc1ccc(NC(=S)Nc2ccc3c(c2)c(=O)n(C)n3-c2ccccc2)cc1,-23,19,/,/,4,8,/,/
CC(NC(=O)COC(=O)COc1ccc(C(=O)c2ccccc2)cc1)c1ccccc1 (stereo unspecified),-12,-2,/,/,5,-2,/,/
O=NC1=C(c2c(O)[nH]c3ccccc23)CCCC1,/,/,i,-1,2,5,-9,-12
C[C@H]1CN([C@@H](C)CO)S(=O)(=O)c2ccc(Br)cc2O[C@@H]1CN(C)Cc1cccc(F)c1,-1&-3,-6,/,/,-2,-2,/,/
Cc1ccc(CN(C(=O)Cc2cccs2)C(C(=O)NC2CCCC2)c2ccncc2)cc1 (stereo unspecified),-16,12,i,-3,-24,-16,9,-10
Cc1cc(/C=C(/C#N)c2cccc(Cl)c2)c(C)n1C,-2,-13,i,-6,4,3,-15,2
# New compounds follow.
SMILES,UUG fidelity,HIV Env fusion,Rce1 inhib,eIF4H inh,MT1-MMP act inh,MT1-MMP act inh RFP,CSC inhib,PABP polyA inh
Cc1ccc(NC(=O)Cn2c(=O)c3cccn3c3ccccc32)c(Cl)c1,/,-62,i,-10,3,0,17,-13
CCc1ccc(OCC(=O)OCC(=O)c2ccc3c(c2)NC(=O)CO3)cc1,-14,/,i,-6,-4,1,-12,-11
Cc1ccc(C(=O)N2CC3(C)CN(C(=O)c4ccc(C)cc4)CC(C)(C2)C3=O)cc1,-6,-15,i,-3,-1,5,-12,-8
O=C(CCN1C(=O)/C(=C\c2ccccc2)SC1=S)N1CCOCC1,/,-4,i,-10,0,-1,2,-19
COc1cccc(CN2CCC(n3nccc3NC(=O)CCOc3ccccc3)CC2)c1O,1,/,i,2,4,2,-4,8
Fc1ccc(NC(=S)N/N=C/c2ccc(F)c(F)c2)cc1,/,0,i,2,0,-2,-6,1
Cc1ccc(-c2nnn(CC(=O)N(Cc3cccs3)C(C(=O)NC3CCCC3)c3ccncc3)n2)cc1 (stereo unspecified),-15,27,i,6,-46,-27,40,-2
Cc1cccc(NC(=O)c2sc(Cl)nc2-c2ccccc2)c1,3,/,i,-2,0,-4,-5,3

# Source: PubChem BioAssay
